Source: PubChem BioAssay (several laboratories)
Calb FLC: C. albicans growth inhibition with fluconazole, primary screen, CaCi-2 strain, Alamar Blue fluorescence. C. albicans CaCi-2 (fluconazole-resistant clinical isolate) + fluconazole, 48 h. growth inhibition, % (test concentration not listed). 300,000 tested, 0.57% active. AID 1979, 2009;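 active = most replicates above 75%; inconclusive = exactly half above 75%; inactive = most below 75%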;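 also: all wells also contain fluconazole at 8 µg/ml as a sub-toxic cotreatment; 0% = median of DMSO wells and 100% = median of geldanamycin control wells; wells of about 8 µL received 7.5 nL stock; the first replicate is given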
T cruzi inh: inhibitors of intracellular T. cruzi growth, primary screen, luminescence, NIH3T3 host cells; T. cruzi beta-gal in NIH3T3, 90 h; inhibition, % (concentration not given with the values); 300,000 tested, 1.4% active;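 active = mean inhibition across valid replicates above about 55%, limit read from the data; inconclusive = mean below that limit but half or more replicates reach it; inactive = mean below it, under half of replicates reach it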;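 also: signal also drops with host cell toxicity which is not excluded here; 0% = plate median of DMSO wells and 100% = zero luminescence signal; higher percent means less beta-gal luminescence so fewer parasites; stock transfer was 50 nL into about 50 µL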
Vif A3G: inhibitors of Vif binding to APOBEC3G peptide, primary screen, biochemical, TR-FRET, GST-Vif 1-94, biotin-A3G peptide, dose response retest (AID 1117319); Virion infectivity factor (Human immunodeficiency virus type 1 group M subtype B (isolate …; TR-FRET GST-Vif / biotin-A3G peptide binding; higher % means a stronger effect; test concentration not given here; strong numbers were not always called active; inhibition, %; hits with a dose series show IC50 in µM; 260,000 tested, 0.57% active;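 active = above the screen mean plus three standard deviations and confirmed in dose response; inconclusive = results disagree or hit not tested in dose response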;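 also: Vif residues 1-94 fused to GST binding biotinylated APOBEC3G peptide 110-148; 0% = full assay without inhibitor and 100% = GST in place of GST-Vif; retest series ran down from 100 µM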
RanGTP-Impb inh: inhibitors of RanGTP-importin-beta interaction, primary screen, biochemical, FRET, CFP-Ran, YFP-importin-beta, homogeneous. cell-free CFP-Ran/YFP-importin-beta FRET ratio. inhibition, % (test concentration not listed). 300,000 tested, 1.1% active;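 active = most replicates above 15%; inconclusive = exactly half above 15%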;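 also: 0% = DMSO wells and 100% = Ran loaded with GDP instead of GTP; wells of about 40 µL received 100 nL stock; the first replicate is given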
Bfl-1 A1 inh: caspase 3/7 activation in MEF A1-2A-BIM cells, primary screen, A1 inhibitor project, cell-based, luminescence, HTS; Caspase-Glo 3/7 luminescence, 3 h; percent of clofoctol response, vehicle zero; caspase activation, % (concentration not given with the values); 330,000 tested, 0.066% active;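 active = over half of replicate activation scores above 10%, or exactly half above 10 with the replicate mean above 10; inconclusive = replicate mean below 10 yet half the replicates above 10; inactive = over half of replicates below 10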;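 also: wells of about 30 µL received 50 nL stock; many hits fall short of the cut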
Ecoli rRNA inh: reduced GFP signal of wild-type E. coli, primary screen, bacterial rRNA inhibitor project, GFP/RFP fluorescence, OD600, single point. AID 720706, 2013. 350,000 tested, 1.6% active. E. coli WT GFP vs humanized-ribosome RFP mutants, 24 h; stronger effect = lower value; DMSO median 0, no signal -100. GFP signal change (wild-type ribosome), % (no concentration beside the values);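 active = significant combined selectivity score with lowered wild-type GFP, culture density cut under 30%, mutant RFP and density less affected; inactive = any of these conditions unmet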; also: one replicate is shown; some compounds called inactive have numbers as strong as hits
MLL AF4-AF9 inh: inhibitors of AF4 peptide binding to AF9, primary screen, biochemical, AlphaScreen, biotin-AF4 peptide, FLAG-AF9, single point; Protein AF-9 (Homo sapiens), P42568; inhibition, % at 10 µM; 350,000 tested, 0.47% active;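 active = every replicate reaching a set inhibition limit, whatever the replicate mean, cut at about 25% in these data; inconclusive = mean inhibition reaches that limit but some replicates miss it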;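 also: 0% = plate neutral control median and 100% = total signal loss; the record names both 10 and 1 µM as test concentration; the first replicate is given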
Target sequence (P42568 whole entry, looked up): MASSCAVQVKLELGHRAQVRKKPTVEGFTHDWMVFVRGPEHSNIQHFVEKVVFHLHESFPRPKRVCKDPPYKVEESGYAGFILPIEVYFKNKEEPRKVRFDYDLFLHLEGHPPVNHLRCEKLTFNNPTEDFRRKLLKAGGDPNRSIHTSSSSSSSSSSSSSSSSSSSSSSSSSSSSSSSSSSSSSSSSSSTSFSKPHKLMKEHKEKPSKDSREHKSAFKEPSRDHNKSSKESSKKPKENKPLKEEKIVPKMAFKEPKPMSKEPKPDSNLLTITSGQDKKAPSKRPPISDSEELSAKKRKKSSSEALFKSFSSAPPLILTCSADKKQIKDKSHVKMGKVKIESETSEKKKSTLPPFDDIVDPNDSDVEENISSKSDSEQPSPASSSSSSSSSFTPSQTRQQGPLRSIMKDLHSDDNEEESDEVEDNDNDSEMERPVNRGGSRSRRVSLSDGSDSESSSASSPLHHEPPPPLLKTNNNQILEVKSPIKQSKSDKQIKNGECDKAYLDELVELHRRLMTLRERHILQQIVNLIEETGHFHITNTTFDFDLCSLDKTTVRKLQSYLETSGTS
Beta cell apopt: inhibitors of cytokine-induced beta cell apoptosis, primary screen, luminescence | INS-1E cytokine-induced death, ATP luminescence, 48 h; percent of positive-control rescue, neutral wells zero | protection from apoptosis, % (concentration not given with the values) | 300,000 tested, 0.8% active;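 active = all replicates at 75% or more, or half of them and the mean; inconclusive = half reach 75% but not the mean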;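 also: 0% = cytokine-treated negative control wells and 100% = positive control rescue; higher means more ATP so stronger rescue from cytokine killing; wells of about 40 µL received 100 nL stock; the first replicate is given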
Ecoli rRNA inh OD600: further read-out of Ecoli rRNA inh, marked with its call; OD600 change, %; measured here: OD600 growth;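 optical density of the mix in the first replicate; 0 = DMSO median and -100 = no signal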
Ecoli rRNA inh RFP: second read-out of Ecoli rRNA inh, no call of its own (marks repeat the call); RFP signal change, %; measured here: RFP humanized mutant strains;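 first replicate; 0 = DMSO median and -100 = no signal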
The depositor's hits bear a star; ? = inconclusive; . = not tested or not shown.

Order of values – Calb FLC	T cruzi inh	Vif A3G	RanGTP-Impb inh	Bfl-1 A1 inh	Ecoli rRNA inh	Ecoli rRNA inh OD600	Ecoli rRNA inh RFP	MLL AF4-AF9 inh	Beta cell apopt
[1] CCCCC(c1nnnn1CS(=O)(=O)c1ccc(C)cc1)N1CCN(C)CC1 (stereo unspecified)
→ -10.4	8.0	?	-1.3	0.0	9.9	2.8	2.4	2.0	.
[2] Cc1cc(NC(=O)Nc2ccc(Cl)cc2)n(-c2ccccc2)n1
→ -2.4	-10.5	1.0%	4.5	0.4	-29.1	-32.4	2.4	-0.6	0.3
[3] CCOC(=O)c1c(C)[nH]c(C)c1C(=O)COC(=O)c1cccc(S(=O)(=O)N(CC)CC)c1
→ 25.2	-5.8	-5.2%	3.1	0.3	.	.	.	.	0.1
[4] Nn1c(SCC(=O)NC2CCCCCC2)nnc1C(F)(F)F
→ .	.	-1.4%	.	0.4	5.3	3.5	-1.2	-1.4	-10.7
[5] Cc1cc2oc(=O)cc(CN(C)Cc3ccccc3Cl)c2cc1C
→ 7.0	45.6	.	1.7	-1.0	-4.7	-8.3	-1.0	1.8	-4.4
[6] COc1ccc(CNC(=O)COC(=O)CCOc2ccc(C)cc2)cc1
→ 2.3	-8.3	-2.7%	1.4	0.9	-0.2	0.6	-1.3	-26.3	-2.8
[7] CCn1nc(C)c(CNC(=O)CCc2nnc(-c3ccc(C(C)=O)s3)o2)c1C
→ 12.2	7.3	-2.5%	2.2	0.9	.	.	.	-2.2	-4.1
[8] CCCCNC(=O)c1ccc2c(=O)n(CCCOCC)c(=S)[nH]c2c1
→ 8.9	-8.6	?	-1.8	0.0	.	.	.	.	0.3
[9] Cc1cc(C(F)(F)F)nc(CCNCc2c(C(=O)N3CCCC3)nc3ccccn23)n1
→ -4.3	12.2	.	-0.9	-0.9	9.5	4.5	1.2	7.5	5.2
[10] Cc1cc(C)cc(N(C(=O)c2csnn2)C(C(=O)NC2CCCC2)c2cccnc2)c1 (stereo unspecified)
→ -5.4	0.8	.	-0.1	0.5	-0.2	0.9	-1.0	1.0	-1.7
[11] N#CCc1nc2n(n1)Cc1ccccc1-2
→ -0.4	1.5	1.2%	0.0	0.4	.	.	.	.	0.4
[12] Cn1cc(C(=O)c2cccc(Cl)c2)cc1C#N
→ -11.6	-26.9	-2.8%	-2.5	-1.1	10.3	12.0	-3.1	-1.4	.
[13] Cc1ccc(C(C)NC(=S)NCc2ccc(F)cc2)cc1C (stereo unspecified)
→ 2.4	-1.9	9.0%	0.2	0.3	-22.6	-59.4	5.6	1.7	0.9
[14] CN(C)C(CNC(=O)c1cc(-c2ccco2)nc2ccccc12)c1ccccc1 (stereo unspecified)
→ .	.	-6.9%	.	-0.9	9.9	19.8	-0.4	3.6	-2.9
[15] O=C(Nc1ccc(F)cc1F)c1cc2nc3c(c(C(F)(F)F)n2n1)CCCC3
→ 8.1	7.4	0.3%	-1.6	0.1	.	.	.	.	-5.8
[16] COCCNc1ccc(-c2n[nH]c(=O)c3ccccc23)cc1[N+](=O)[O-]
→ 5.6	-7.6	-0.3%	0.2	-1.3	-2.0	-2.1	1.0	1.8	-8.2
[17] CC(C)c1c(O)nc(SCCOc2ccc(Cl)cc2)[nH]c1=O
→ -2.3	-0.1	2.1%	2.1	-0.5	-19.1	-5.9	-10.8	-2.1	-15.4
[18] O=C(CCCN1C(=O)S/C(=C\c2ccccc2)C1=O)NNC(=O)c1ccccc1O
→ -28.1	-4.1	9.5%	2.0	-1.2	3.0	9.4	-1.1	-2.0	-1.8
[19] CCN1CCN(c2ncnc3c2cnn3-c2ccccc2)CC1
→ -9.6	8.1	6.5%	1.8	-0.8	-1.2	-2.0	-0.1	2.7	-3.1
[20] COc1ccc(/C=C(\C#N)C(=O)c2cccn2C)cc1
→ 0.3	-0.9	-9.8%	7.5	0.2	19.9	12.2	0.6	6.6	-4.0

New compounds follow:
Order of values – Calb FLC	T cruzi inh	Vif A3G	RanGTP-Impb inh	Bfl-1 A1 inh	Ecoli rRNA inh	Ecoli rRNA inh OD600	Ecoli rRNA inh RFP	MLL AF4-AF9 inh	Beta cell apopt
[21] O=S(=O)(Nc1cc(S(=O)(=O)N2CCOCC2)ccc1N1CCOCC1)c1ccc2c(c1)OCCO2
→ 5.3	1.4	17.3%	4.7	1.2	-1.2	-10.0	0.2	-0.3	-2.0
[22] O=C(NNC(=S)Nc1ccc(Cl)cc1Cl)c1ccncc1
→ -0.5	-3.1	7.1%	2.8	-1.2	-15.0	-6.2	-1.1	0.2	-5.7
[23] CN(C)c1ccc(N/C=C/C(=O)c2ccco2)cc1
→ 18.1	34.3	30.8µM*	5.2	-7.7	.	.	.	.	3.2
[24] CC(=O)Nc1cccc(-c2nn[nH]n2)c1
→ 2.4	-8.5	2.0%	-1.7	0.1	9.2	4.8	2.1	1.7	2.6
[25] CC(=O)c1ccc(S(=O)(=O)NC2CCSc3ccccc32)cc1 (stereo unspecified)
→ -0.5	-2.5	.	-1.1	0.6	-6.6	-5.2	-0.2	-10.9	0.9
[26] CC(C)COCC(O)CC(Cc1ccccc1)C(=O)NN (stereo unspecified)
→ 2.8	-8.4	2.7%	-0.8	-0.1	7.1	-3.5	-5.7	-1.3	3.0
[27] O=C(Cc1ccc(S(=O)(=O)N2CCOCC2)s1)Nc1ccccc1N1CCOCC1
→ -1.0	-30.3	12.0%	0.5	0.7	9.3	-10.4	1.5	-1.0	-0.6
[28] O=C(CSc1nccc(=O)[nH]1)N1CCN(c2ccccc2)CC1
→ -2.9	4.2	1.8%	?	0.4	25.2	19.0	5.1	-0.2	-1.1
[29] COc1cc([N+](=O)[O-])ccc1NC(=O)Nc1ccc2c(c1)OCCO2
→ -16.9	23.9	-4.8%	?	-1.5	7.7	9.7	4.9	4.7	10.7
[30] CCCc1nc2ccccc2c(C(=O)OCC(=O)c2ccc3c(c2)NC(=O)CO3)c1CC
→ -8.2	3.1	-10.6%	4.9	0.4	.	.	.	.	.
[31] CCOc1ccc(NC(=O)N[C@@H](Cc2ccccc2)C(=O)O)cc1
→ -5.6	7.7	3.6%	1.0	0.3	4.3	2.0	-8.1	1.6	-7.5
[32] COc1ccc(OC)c2c1CC(C)(C)NC2=O
→ -0.2	3.0	-4.1%	2.4	-0.3	14.3	10.8	-0.4	4.4	-3.3
[33] Cc1cc(C)c2[nH]c(C(=O)N3CCC(n4nccc4NC(=O)C4CC4)CC3)c(C)c2c1
→ -1.6	1.8	-2.4%	-1.4	-1.6	-1.7	-15.3	0.6	1.4	-4.1
[34] CNCCNC[C@H](Cc1cccc2ccccc12)NCCc1ccccc1
→ .	.	.	.	0.1	0.4	1.9	21.3	12.7	5.7
[35] CC(c1ccccc1)N(CC(=O)NC1CCCCC1)S(=O)(=O)c1cccc(C(F)(F)F)c1 (stereo unspecified)
→ 1.5	14.5	-6.4%	4.3	0.0	-16.7	-21.2	6.0	2.1	15.5
[36] Cc1ccnc(NCc2cccc3ccccc23)c1
→ -8.0	-10.2	.	0.3	-0.4	-34.4	-70.8	-3.9	0.7	-3.1
[37] CC(NS(=O)(=O)c1ccc(CCC(=O)NCc2ccco2)cc1)c1ccccc1 (stereo unspecified)
→ 0.3	-13.1	-14.3%	1.3	-0.2	.	.	.	.	-7.4
[38] O=C(COCc1cc(-c2ccco2)on1)NC1CCCCC1
→ -2.7	-0.4	5.9%	3.1	0.0	11.1	5.8	-0.4	-1.4	-5.7
[39] O=C(COC(=O)c1cc(S(=O)(=O)N2CCOCC2)ccc1Cl)Nc1ccc2c(c1)OCO2
→ 15.1	5.8	14.8%	-4.1	1.7	.	.	.	.	-6.4
[40] CCn1cc(C2=NOC(C(=O)Nc3ccccc3C(=O)OC)C2)c(C)n1 (stereo unspecified)
→ -12.7	-27.7	2.7%	-4.0	0.6	5.4	9.3	-9.9	10.9	-0.7

New compounds follow.
Order of values – Calb FLC	T cruzi inh	Vif A3G	RanGTP-Impb inh	Bfl-1 A1 inh	Ecoli rRNA inh	Ecoli rRNA inh OD600	Ecoli rRNA inh RFP	MLL AF4-AF9 inh	Beta cell apopt
[41] Cc1noc(C)c1C(=O)NNc1ccc(C(C)C)cc1
→ 1.9	8.5	-10.2%	6.5	0.0	15.3	2.4	0.1	-0.6	-1.2
[42] COC(=O)c1cnc(Nc2cc(C)ccc2OC)c2ccccc12
→ -34.7	-8.8	-5.6%	?	1.2	1.5	16.1	7.8	-6.5	1.6
[43] Cc1cc(C)c(C(=O)COC(=O)[C@H](C)Nc2ccc(C(F)(F)F)cc2[N+](=O)[O-])c(C)c1
→ -11.3	-9.4	-1.6%	4.6	-0.2	.	.	.	.	-7.2
[44] CCCCc1[nH]c(=O)c(C#N)c2c1CSC(C)(C)C2
→ 15.1	0.7	0.6%	-5.1	0.8	.	.	.	.	1.2
[45] O=C(N/N=C/c1ccc(O)c([N+](=O)[O-])c1)c1ccncc1
→ 0.8	-10.6	-22.5%	?	-9.6	13.9	11.7	-2.4	-12.5	0.1
[46] Cc1ccc(OS(=O)(=O)c2c(C)nn(C)c2Cl)c(C)c1
→ 4.2	16.6	.	-1.4	-1.3	-10.0	-36.2	-4.3	-0.8	-8.7
[47] O=C(Nc1nccs1)c1cccc(N2C(=O)C3C4C=CC(C4)C3C2=O)c1 (stereo unspecified)
→ -10.4	-11.6	4.4%	2.8	0.5	.	.	.	.	2.3
[48] Cc1ccc(-n2ncc(C#N)c2N)cc1
→ -2.4	-4.7	23.2%	-4.4	1.2	2.1	5.1	-1.2	2.5	-3.4
[49] O=C1CCCc2cc(S(=O)(=O)N3CCC(C(=O)NCc4ccccc4)CC3)ccc2N1
→ 10.4	-6.8	.	3.0	-0.7	9.6	15.5	2.4	-5.4	-0.1
[50] COc1ccc(N(CC(=O)NCc2cccc(OC)c2)S(=O)(=O)c2c(C)noc2C)cc1
→ 0.7	-3.8	10.4%	1.8	0.2	.	.	.	.	-0.4
[51] CC1CC(C)(C)CC2(C1)NC(=O)N(CC(=O)Nc1c(F)cccc1F)C2=O (stereo unspecified)
→ .	.	4.5%	.	-1.1	14.5	2.6	2.2	0.8	2.4
[52] COc1cc2nc(N3CCN(C(=O)OCc4ccccc4)[C@H](C(=O)NC(C)(C)C)C3)nc(N)c2cc1OC
→ .	.	.	.	0.4	-59.6	-73.5	-12.7	7.7	-6.2

A portion of the library; rates above refer to the full screens.
